# Screening results from PubChem.
# Six1-Eya2 blk: Six1/Eya2 interaction inhibition; Q15475+O00167; AlphaScreen GST-Six1/His-Eya2 binding, biochemical; hits give low values; control for the full effect not named in the record; activity change, % (no concentration beside the values); hit rate 0.56% among 360,000; AID 651725; in the data active = activity change below about -65%; inconclusive = about -30% to -65%; inactive = above about -30%; note: % is set by controls: 0 for no effect and ±100 for the full control effect; compound concentration not given in the record
# Target sequence (O00167 whole entry, looked up): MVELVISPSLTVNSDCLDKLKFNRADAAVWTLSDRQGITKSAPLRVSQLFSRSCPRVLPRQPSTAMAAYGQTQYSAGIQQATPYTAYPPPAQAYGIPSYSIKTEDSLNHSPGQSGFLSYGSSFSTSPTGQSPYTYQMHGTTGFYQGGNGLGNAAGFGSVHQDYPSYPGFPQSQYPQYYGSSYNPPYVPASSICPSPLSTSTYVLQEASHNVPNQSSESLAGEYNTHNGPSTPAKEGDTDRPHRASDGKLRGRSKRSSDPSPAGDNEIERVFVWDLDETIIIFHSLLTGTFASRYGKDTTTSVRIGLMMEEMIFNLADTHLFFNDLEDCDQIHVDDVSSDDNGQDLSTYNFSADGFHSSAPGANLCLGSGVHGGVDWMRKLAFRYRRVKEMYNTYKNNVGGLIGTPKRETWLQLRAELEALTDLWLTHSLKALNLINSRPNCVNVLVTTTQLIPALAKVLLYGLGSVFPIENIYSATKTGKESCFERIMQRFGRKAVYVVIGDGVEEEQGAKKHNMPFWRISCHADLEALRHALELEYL
# Target sequence (Q15475 whole entry, looked up): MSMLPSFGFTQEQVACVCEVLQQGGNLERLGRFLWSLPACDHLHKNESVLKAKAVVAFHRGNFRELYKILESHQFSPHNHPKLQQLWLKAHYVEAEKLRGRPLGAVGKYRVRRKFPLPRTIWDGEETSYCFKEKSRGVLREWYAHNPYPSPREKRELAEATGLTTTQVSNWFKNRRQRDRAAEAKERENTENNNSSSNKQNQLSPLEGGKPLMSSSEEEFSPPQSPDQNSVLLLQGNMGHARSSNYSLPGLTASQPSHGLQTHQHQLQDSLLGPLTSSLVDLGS
#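 Homogeneous AlphaScreen proximity assay pairing GST-Six1 with His-tagged Eya2 (added as 5X mix: 250 nM and 500 nM) in 50 mM Tris pH 8.0, 300 mM NaCl, 1 mM TCEP. Glutathione donor and nickel acceptor beads; 1 h, 37 °C, dark.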
# gsp agonist: activates gsp, the McCune-Albright syndrome mutation | hit rate 0.13% among 340,000 | gsp mutant cells, cAMP HTRF, 30 min; control for the full effect not named in the record | Potency, µM (titrated, usually from 76.9 µM), without a hit: top-dose activation (cAMP increase), actives largely listed as activators | AID 624287; active = well fitted activation curve with a large enough effect; inconclusive = small, poorly fitted or top-dose-only effect, or another doubt; inactive = no such curve, though single readings can be large or run the other way; cell line not stated here;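 note: phosphodiesterase inhibitor Ro 20-1724 added with compounds to block cAMP breakdown; potency is the fitted concentration of half-maximal effect; nearly all actives have a fitted effect of over 60% in size; about a fifth of the inactives were tested at one dose only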
#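 Cells in DMEM/10% FBS with G418 were pretreated with compounds in DMSO plus […] (300 uM stock) for 30 min at 37C. cAMP was measured by HTRF (cAMP-d2 plus anti-cAMP antibody-K) after 30 min at room temperature.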
# D2 ag: agonists of human D2 dopamine receptor (beta-arrestin) | P14416 | DiscoveRx PathHunter D2 beta-arrestin, luminescence, 90 min; 100% = 57 uM dopamine signal | activation, % (test concentration not listed) | hit rate 0.084% among 360,000 | AID 624465; in the data active = activation above about 40%; inconclusive = about 15% to 40%; inactive = below about 15%; note: compound concentration not given in the record; the text of the record calls up to 30% inactive
#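 DiscoveRx PathHunter D2 beta-arrestin cells (2,100/well) attached overnight, then compound-stimulated 90 min at 37 C in HBSS/10 mM HEPES/0.1% Tween-20 buffer; beta-galactosidase complementation read by luminescence after 1 h at ambient temperature. Dopamine 57 uM final (EC100) as control.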
# gsp antagonist: gsp mutant antagonism | gsp-mutant cells, cAMP HTRF, 30 min; control for the full effect not named in the record | Potency, µM (top dose mostly 76.9 µM), without a hit: at the highest dose activity change, negative = inhibition, actives largely listed as inhibitors | hit rate 0.4% among 340,000 | AID 624288; active = falling curve of any shape with a large fitted effect; inconclusive = falling curve, mostly with a smaller effect; inactive = flat or rising curve; cell line not stated here;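 note: intracellular cAMP measured with PDE inhibitor Ro 20-1724 present during compound exposure; potency is the fitted concentration of half-maximal effect; % is set by controls: 0 for no effect and ±100 for the full control effect; nearly all actives have a fitted effect of over 65% in size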
#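 G418-selected cells were plated in DMEM/10% FBS for 16-24 h at 37C, then treated with compounds plus the PDE inhibitor […] (300 uM solution added) for 30 min at 37C. Intracellular cAMP was measured by HTRF after 30 min lysis at room temperature.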
# D2 PAM: potentiates the human D2 dopamine receptor allosterically; hit rate 0.23% among 360,000; DiscoveRx D2 beta-arrestin cells, luminescence, 90 min; 100% = 57 uM dopamine signal; potentiation, % (test concentration not listed); AID 624464; P14416; active = potentiation of 50% or more; inconclusive = 30% to 50%; inactive = 30% or less;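 note: compound concentration not given in the record; tested on top of an EC20 dose of dopamine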
#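 PathHunter D2 cells, attached overnight at 37 deg C, received compound in DMSO plus dopamine at EC20 (50 nM final) for 90 min at 37 deg C. Beta-arrestin recruitment was read as luminescence after 1 h with detection reagent at ambient temperature.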
# CtBP-E1A blk: blocks the CtBP interaction with E1A; hit rate 0.49% among 340,000; AlphaScreen GST-E1A/His-CtBP binding, 1536-well; hits give low values; control for the full effect not named in the record; AID 651724; activity change, % (test concentration not listed); in the data active means activity change below about -65%; inconclusive means about -30% to -65%; inactive means above about -30%; note: % is set by controls: 0 for no effect and ±100 for the full control effect; compound concentration not given in the record
#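 In 5 uL wells, 23 nL compound meets equimolar GST-E1A and His-CtBP (5X stock 125 nM each) for 2 h, 37 °C. Beads (5X, 50 ug/mL) then 1 h, 37 °C, dark.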
# * hit, by the source's call; u = inconclusive; x = not tested or not shown; [ ] = dose if it differs, or a comment.
SMILES,Six1-Eya2 blk,gsp agonist,D2 ag,gsp antagonist,D2 PAM,CtBP-E1A blk
O=C(Nc1ccccc1N1CCCCC1)c1ccc2nccnc2c1,-3,17%,-0.9,7%,-2,-1
CSCCC(NC(=O)c1ccccc1Br)C(=O)NCC(C)(C)N1CCOCC1 (centres undefined),2,-55%[inhibitor],-4.8,3%,-18,4
CCCn1c(O)c(N=N)c2ccccc21,-10,-3%,-7.4,6%,-9,-4
COc1cc(-c2ccc(NC(=O)c3ccc(C)cc3)c(OC)c2)ccc1NC(=O)c1ccc(C)cc1,4,2%,-2.7,5%,2,0
COc1ccc2c(c1)CN(C)S(=O)(=O)c1ccccc1-2,5,x,-3.4,4%,-1,1
O=c1[nH]c(/C=C\c2ccc(O)c(O)c2)nc(O)c1[N+](=O)[O-],-23,u,-4.4,-11%,-9,u
C=CCc1cc(/C=C/c2nc(O)c([N+](=O)[O-])c(=O)[nH]2)cc(OC)c1O,-12,-25%[15.4 µM],-2.0,-13%,-6,1
COc1cccc(NC(=O)c2cccnn2)c1,-16,-19%,-5.7,7%,-7,-1
CC(=O)Nc1ccc(NC(=O)C23CC4CC(C2)CC(n2cnc(Br)n2)(C4)C3)cc1,0,-1%[15.4 µM],-4.8,6%,-1,8
O=C(Nc1ccccc1C(=O)N/N=C/c1ccncc1)c1ccccc1,5,-17%,-0.2,-13%,7,3
CC1CCCCN1CC(=O)Nc1ccc2c(c1)OCO2 (centres undefined),2,-4%,7.6,7%,-2,2
S=C(NC1CC1)N1CCN(C(=S)NC2CC2)CC1,3,-1%,-0.2,11%,-3,9
CCCCN(C(=O)c1ccc(-n2nc(C)cc2C)cc1)c1c(N)n(CCC)c(=O)[nH]c1=O,6,8%,-0.2,2%,-14,7
CCCCOC(=O)Nc1nnc(CCc2ccccc2)s1,-3,-8%,0.8,3%,-2,1
O=C(O)C[C@H]1c2cc(C(F)(F)F)ccc2S(=O)(=O)N1C1CCCC1,4,x,-1.9,0%,-6,0
Cc1nnc(SCc2cc(=O)[nH]c(/N=C(\N)Nc3ccccc3Sc3ccccc3)n2)s1,-1,-19%,-1.7,-2%,-4,-6
O=C(Nc1cccc(S(=O)(=O)N2CCCC2)c1)c1ccc2c(c1)OCO2,-30,-42%[inhibitor],-3.5,6%,2,-20
CNC(=S)NNC(=O)c1sc2cc(C(F)(F)F)cnc2c1-c1cccnc1,-11,-3%,-1.4,-9%,-12,-7
CNC(=S)Nc1cc(S(=O)(=O)Nc2cc(Cl)ccc2Cl)ccc1N1CCCC1,-9,-10%,-3.4,-14%,-6,2
CC(=O)NCCNC(=O)CCNC(=O)c1ccc(Cl)cc1,26,u,-5.2,24%,-12,28
O=C(Nc1ncnc2sc3c(c12)CCC3)c1ccco1,-12,3%,-4.9,3%,-7,-2
COc1ccc(NS(=O)(=O)c2cc(NC(=O)c3cncc(Br)c3)ccc2OC)cc1,u,9%[15.4 µM],7.3,-21%,7,-8
CC1(C)CC(=O)C(N=Nc2ccc3ncsc3c2)=C(O)C1,0,-3%,-5.4,-10%,1,-1
CN(C)C(=O)c1cc(C(=O)c2ccc(Cl)cc2Cl)c[nH]1,-4,-49%[15.4 µM],1.2,-7%,3,-21
COc1ccc(CN2C(=O)C(CC(=O)NCc3cccs3)CC(C(=O)N(C)C)=C2C)cc1 (centres undefined),1,-10%,-8.8,x,0,0

# Next part, starting with the last six of the part before.
SMILES,Six1-Eya2 blk,gsp agonist,D2 ag,gsp antagonist,D2 PAM,CtBP-E1A blk
CC(=O)NCCNC(=O)CCNC(=O)c1ccc(Cl)cc1,26,u,-5.2,24%,-12,28
O=C(Nc1ncnc2sc3c(c12)CCC3)c1ccco1,-12,3%,-4.9,3%,-7,-2
COc1ccc(NS(=O)(=O)c2cc(NC(=O)c3cncc(Br)c3)ccc2OC)cc1,u,9%[15.4 µM],7.3,-21%,7,-8
CC1(C)CC(=O)C(N=Nc2ccc3ncsc3c2)=C(O)C1,0,-3%,-5.4,-10%,1,-1
CN(C)C(=O)c1cc(C(=O)c2ccc(Cl)cc2Cl)c[nH]1,-4,-49%[15.4 µM],1.2,-7%,3,-21
COc1ccc(CN2C(=O)C(CC(=O)NCc3cccs3)CC(C(=O)N(C)C)=C2C)cc1 (centres undefined),1,-10%,-8.8,x,0,0
CCCCNC(=O)N1CCN(c2ccnc3cc(Cl)ccc23)CC1,-5,29%[15.4 µM],1.2,-49%,-2,-8
CN1CCN(c2nc3c(c(=O)n(C)c(=O)n3C)n2Cc2ccccc2F)CC1,-4,11%[15.4 µM],0.4,-5%,1,-7
Cc1cccc(N2CCN(C(=S)Nc3ccc4nc(N5CCN(C)CC5)cc(C)c4c3)CC2)c1C,5,-11%,-5.1,-7%,-16,x
CC(c1ccccc1)c1nnc(NC(=O)c2ccc3c(c2)OCO3)s1 (centres undefined),10,2%,-2.2,12%,-17,x
Cc1ccc(NC(=O)C(Nc2cccc(C)c2)c2ccccc2)cc1 (centres undefined),0,-39%[inhibitor],-3.9,u,-2,x
COc1ccc2c(c1)c(CC(=O)Nc1ccc(C(C)=O)cc1)c(C)n2C(=O)c1ccc(Cl)cc1,-16,0%,3.8,-17%,4,-10
CCOc1cccc(-c2nn(-c3ccccc3)cc2/C=C(/C#N)C(=O)NCCCn2ccnc2)c1,0,2%[15.4 µM],0.5,-31%,-5,-7
CC1CCN(C(=O)CN2C(=O)NC3(CCCc4ccccc43)C2=O)CC1 (centres undefined),6,4%,4.5,12%,10,-2
CCOP(=O)(c1ccccc1)c1nc(-c2ccccc2Cl)oc1N1CCCCC1 (centres undefined),-3,-54%,-1.6,0%,-1,-8
Cc1cccc(-c2cc(NC=O)c3ncc(-c4cccc(C(=O)N(C)C)c4)n3c2)c1,-9,x,-4.8,x,0,u
S=C1NCCNC(=S)NCCOCCN1,1,1%,-0.5,11%,-5,-1
CCOC(=O)c1sc(NC(=O)CN2CCN(c3ccccc3)CC2)nc1C,-3,-5%[15.4 µM],3.5,-9%,-5,-2
O=[N+]([O-])c1cccc(CN2[C@@H](Cc3ccccc3)COCCS2(=O)=O)c1,-6,5%,-1.4,-4%,-12,x
CCc1ccccc1N(CC(=O)NC1CCCC1)C(=O)CNC(=O)c1cccs1,0,0%[15.4 µM],-2.6,6%,-1,13
Cc1cccc(NC(=O)N(Cc2cc3cc(C)cc(C)c3[nH]c2=O)CC2COCCO2)c1 (centres undefined),-5,-8%,-2.8,-9%,-12,-14
CC(=O)NC1(c2nnnn2CCOC(=O)Nc2ccc(Cl)cc2)CCCC1,6,23%,4.5,9%,1,6
COc1ccc(CNc2nc3ccccc3n2Cc2ccc(C)cc2)cc1OC,-3,22%,-8.2,8%,-33,3
COc1ccc(C(=O)Nc2ccc(S(=O)(=O)NC(C)=O)cc2)cc1,-2,-6%,-0.3,-5%,11,-4
CCCc1cc(-c2nc(-c3ccc(Cl)cc3)cs2)ccn1,24,-23%,-0.8,0%,-24,-2
O=C(NCc1ccccc1)c1cc(=O)c2ccccc2o1,-5,-1%,0.0,-2%,-7,-11
Cc1ccc(N2CC(C(=O)N3CCN(C(=O)c4ccco4)CC3)CC2=O)cc1 (centres undefined),0,-22%,-2.8,-8%,3,7
CCN(CC)C(=O)[C@H]1C[C@H](CC(=O)NCCCN(C)C)C(=O)N2CCc3c([nH]c4ccc(Cl)cc34)[C@]12C,-7,x,-1.0,2%,-12,0
COc1cc(OC)c(OC)cc1NC(=O)CC1COc2ccccc2O1 (centres undefined),1,-48%[inhibitor],1.3,7%,-8,7
CSC1=NC(C)(C)CC2(C)Nc3ccccc3N12 (centres undefined),3,16%,0.6,5%,20,-2
COc1ccc(S(=O)(=O)n2cccc2)cc1OC,-9,-3%,-2.8,4%,-15,6
# Next section
SMILES,Six1-Eya2 blk,gsp agonist,D2 ag,gsp antagonist,D2 PAM,CtBP-E1A blk
CN(CC(=O)Nc1ccc(Cl)c(S(=O)(=O)N(C)C)c1)Cc1ccccc1,27,-2%,-2.9,-14%,-16,-1
COc1ccc(C(=O)NCC(=O)OCC(=O)Nc2cc([N+](=O)[O-])ccc2F)cc1,0,10%[15.4 µM],1.2,-16%,2,5
Cc1ccc(-c2ccc(=O)n(CCC(=O)NCc3ccccn3)n2)cc1,-13,-2%,-0.9,2%,-8,0
CCCS(=O)(=O)c1nc(S(=O)(=O)c2ccc(C)cc2)c(N2CCN(CCO)CC2)s1,12,u,-1.5,8%,-1,x
COc1ccc(C(=O)O)c(O)c1,7,x,-2.5,11%,-11,5
CCN1CCN(C(=O)c2cc(COc3ccc4ncccc4c3)on2)CC1,0,-2%[15.4 µM],1.9,-11%,3,12
O=C(NCc1ccc(Cl)cc1)c1ccc(N2CCCC2=O)cc1,1,26%,3.6,8%,-2,4
O=C(CN1CCC(NC(=O)Cc2ccccc2)CC1)Nc1ccccc1Br,1,-14%,-0.1,5%,-6,4
O=C(NCCCn1ccnc1)c1ccc(OCC(F)(F)F)cc1,-4,-6%[15.4 µM],-0.7,15%,-7,3
CCOC1=C2[C@@H](CN(S(=O)(=O)c3ccc(C)cc3)[C@H]2c2cccc3ccccc23)[C@H]2C(=O)N(c3ccccc3)C(=O)[C@H]2C1,-4,x,-2.9,x,-5,1
CC(C)c1ncc(C(O)c2cccc3ccccc23)n1C (centres undefined),0,-24%,-1.0,-13%,10,4
Cc1ccc(S(=O)(=O)N2CCN(C(=O)CN3C(=O)CNC3=O)CC2)cc1,-7,-9%,-3.0,9%,-2,x
CC(C)(C)OC(=O)N1CCN(C(=O)c2cccnc2Cl)CC1,-2,6%,-2.0,4%,-3,x
CCOC(=O)C1CCCN(CC(=O)Nc2nc(-c3ccccc3)cs2)C1 (centres undefined),0,-32%[15.4 µM],-4.3,-18%,1,8
CCC(=O)Oc1ccc2c(C)cc(=O)oc2c1C(=O)CC,-11,18%,-7.6,4%,-7,-5
Cc1ccccc1-n1nc(C)c2cc(C(=O)N3CCN(S(=O)(=O)c4ccccc4)CC3)sc21,4,-74%[inhibitor],-0.8,-2%,-5,-1
Cc1ccc(C(=O)Oc2ccccc2N2CCOCC2)cc1,-17,-3%[15.4 µM],-3.7,-13%,-3,3

# Look-ups from the entries so far:
# Result for O=C(CN1CCC(NC(=O)Cc2ccccc2)CC1)Nc1ccccc1Br under Six1-Eya2 blk: 1
# Result for O=C(NCCCn1ccnc1)c1ccc(OCC(F)(F)F)cc1 under gsp agonist: -6%[15.4 µM]
# Result for Cc1ccc(-c2ccc(=O)n(CCC(=O)NCc3ccccn3)n2)cc1 under CtBP-E1A blk: 0
# Result for Cc1ccc(C(=O)Oc2ccccc2N2CCOCC2)cc1 under Six1-Eya2 blk: -17
# Result for CCCS(=O)(=O)c1nc(S(=O)(=O)c2ccc(C)cc2)c(N2CCN(CCO)CC2)s1 under gsp antagonist: 8%

# Rows were taken by chance; any-hit rate near 1.4%.
